# Mtb bLac sens: beta-lactam sensitization of Mtb H37Rv, H37Rv; M. tuberculosis H37Rv growth with meropenem, percent inhibition; hits of this screen are not shown here; AID 434955, 2010; inhibition, % at 25 µM; actives 0.27% (n = 330,000);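 active means about 74% or more and at least 40 points above the plate without the antibiotic, then above 30% in a dose series; inconclusive means first-round hits that could not be retested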;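 further: growth measured after seven days incubation then overnight dye step; 0% = bacteria only wells and 100% = bacteria with antibiotic; twin plates without the antibiotic show which effects depend on it; some results filed as inactive read as strong as hits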
# Arbovirus anti: antivirals against arbovirus infection, primary screen, cell-based, full library, 10K replicate subset. actives 0.37% (n = 200,000). arbovirus infection cell-based antiviral screen. inhibition, % at 10 µM;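 active means inhibition from about 30%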;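 further: bluetongue infection of BSR cells; cell survival read as ATP light after 72 h; 0% = infected wells without compound and 100% = uninfected wells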
# YopH inh: YopH tyrosine phosphatase inhibitors, primary screen, biochemical, fluorescence Ex485/Em525; YopH tyrosine phosphatase [Yersinia enterocolitica]; inhibition, %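 (about 10 µM by stock and volumes)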; actives 0.16% (n = 140,000);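 active means inhibition of 50% or more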;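 further: controls were vehicle for no effect and minimum signal wells for full effect; inactives centre near -20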
# RecA intein inh: Mtb RecA intein splicing inhibitors, primary screen, biochemical, fluorescence, HTS. Protein RecA (Mycobacterium tuberculosis (strain ATCC 25618 / H37Rv)), P9WHJ3. cell-free RecA intein splicing. inhibition, %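 (about 9 µM by stock and volumes)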. actives 0.75% (n = 290,000). AID 2221, 2009; in the data active means inhibition above about 30%; inconclusive means no clear call, values can overlap the other calls;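 further: 0% = vehicle wells and 100% = reference inhibitor control wells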
# Target sequence (P9WHJ3 whole entry, looked up): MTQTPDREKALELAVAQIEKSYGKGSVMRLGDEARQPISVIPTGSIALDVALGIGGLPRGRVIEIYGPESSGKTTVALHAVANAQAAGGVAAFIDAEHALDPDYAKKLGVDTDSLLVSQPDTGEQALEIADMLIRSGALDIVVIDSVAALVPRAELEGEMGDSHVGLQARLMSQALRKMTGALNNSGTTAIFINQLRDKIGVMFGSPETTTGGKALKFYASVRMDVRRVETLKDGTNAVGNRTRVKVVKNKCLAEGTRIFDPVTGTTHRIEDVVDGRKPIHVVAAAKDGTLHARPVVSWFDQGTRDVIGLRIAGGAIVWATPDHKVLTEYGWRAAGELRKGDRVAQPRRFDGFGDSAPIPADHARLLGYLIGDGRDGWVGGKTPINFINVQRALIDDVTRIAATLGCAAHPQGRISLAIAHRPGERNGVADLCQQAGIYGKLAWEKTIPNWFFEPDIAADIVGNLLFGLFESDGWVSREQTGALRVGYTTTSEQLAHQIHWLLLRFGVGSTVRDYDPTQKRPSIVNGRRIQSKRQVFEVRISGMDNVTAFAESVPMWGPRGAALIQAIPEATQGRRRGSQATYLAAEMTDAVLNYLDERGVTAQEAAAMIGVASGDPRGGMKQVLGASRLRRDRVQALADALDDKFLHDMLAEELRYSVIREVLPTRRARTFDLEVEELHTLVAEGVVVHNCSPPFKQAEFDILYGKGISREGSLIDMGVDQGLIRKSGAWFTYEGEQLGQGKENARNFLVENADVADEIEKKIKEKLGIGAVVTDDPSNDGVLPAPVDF
# Mtb growth: M. tuberculosis H37Rv growth inhibitors, H37Rv strain (AID 1626); M. tuberculosis H37Rv growth inhibition; higher % means a stronger effect; inhibition, % at 10 µM; hits with a dose series show IC50 in µM; actives 0.95% (n = 220,000);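 active means confirmed in a dose series; inconclusive means inhibition above 80% but not taken into the dose series; inactive means below 80% or under 30% at every dose of the series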;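 further: bacteria incubated seven days before Alamar blue readout; 0% = bacteria only wells and 100% = bacteria with antibiotic wells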
# Arbovirus anti repeat: also measured in Arbovirus anti; calls as there; inhibition, %; measured here: 10K subset replicate screen; many hits read low in the repeat;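 first of two repeat runs on a subset; 0% = infected and 100% = uninfected wells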
# * marks the source's active call; other numbers are inactive results; u = inconclusive; x = not tested or not shown. An excerpt, so the mix of outcomes need not match the whole.
SMILES,Mtb bLac sens,Arbovirus anti,YopH inh,RecA intein inh,Mtb growth,others
COC(=O)c1ccc(NC(=O)CSc2nncn2-c2cccnc2)cc1,1.3,x,x,0.4,x,
Cc1ccc(C23CC4CC(CC(NC(=O)NN)(C4)C2)C3)cc1,-2.3,x,x,7.8,x,
O=C(c1cc[n+]([O-])cc1)N1CCCC(N2CCN(c3cccc(C(F)(F)F)c3)CC2)C1 (configuration not stated),u,x,x,-0.7,x,
O=c1[nH]c2ccsc2c(=O)n1-c1ccc(F)cc1,-6.3,2.3,-26.3,-0.7,-3.8%,
Cc1csc(NC(=O)Cc2c(F)cccc2Cl)n1,-3.0,x,x,2.9,x,
COc1ccc(CCNC(=O)c2cc(-c3cc(C)ccc3O)n[nH]2)cc1OC,14.4,19.8,-2.6,3.1,1.6%,
O=C1c2ccccc2C(Nc2ccc(S(=O)(=O)N3CCOCC3)cc2)N1Cc1ccco1 (configuration not stated),6.3,1.8,-36.1,0.1,-2.4%,
Cc1nn(C)c(Cl)c1CN1CCCC(CO)(Cc2ccccc2)C1 (configuration not stated),1.6,-6.5,x,6.5,-1.0%,
COc1ccc2c(c1)c1nnc(SCC(=O)Nc3ccccc3F)nc1n2C,-3.4,x,x,-1.9,x,
COc1ccc(-c2cc(C)no2)cc1S(=O)(=O)N(C)Cc1ccco1,-6.9,x,x,2.2,x,
O=C(Nc1ccc(N2CCOCC2)c(F)c1)c1ccncc1,-21.9,-1.4,-18.3,1.6,-4.6%,
CC1CN(C(=O)COC(=O)[C@@H]2CC(O)CN2S(=O)(=O)c2ccc3c(c2)OCCO3)CC(C)O1 (some centres not stated),-6.0,1.9,-23.0,-1.0,-4.6%,
COc1ccc(C(=O)NNC(=S)NC(=O)C(C)(C)C)cc1,94.9,-29.9,x,3.9,u,
COc1cccc2c(=O)n(CC(=O)NCCc3ccccc3)ccc12,-1.5,x,x,1.0,-18.6%,
O=C(c1cc2ccccc2oc1=O)N1CCN(C(=O)C2CCCO2)CC1 (configuration not stated),7.1,2.1,-22.5,-2.1,-5.1%,
O=C(Cn1cccc1C(=O)c1ccccc1)NCc1ccc2c(c1)OCO2,2.2,-18.1,-47.8,-5.8,-6.0%,
COc1ccc(OC)c(NC(=O)NNS(=O)(=O)c2ccc(C)cc2C)c1,8.2,x,x,1.5,x,
CCC(=O)c1ccc(OC)c(OC)c1,3.6,1.4,x,-0.5,3.5%,Arbovirus anti repeat=3.3
Cc1[nH]c(C)c(S(=O)(=O)N2CCCCC2)c1C(=O)N1CCCC1,-1.4,x,x,-0.4,x,
COC(=O)c1ccc(-c2cc(CC3(C(=O)OC)CCN(C(=O)OC(C)(C)C)CC3)on2)cc1,7.6,x,x,1.4,x,

# The last three entries of the part above open the next one:
SMILES,Mtb bLac sens,Arbovirus anti,YopH inh,RecA intein inh,Mtb growth,others
CCC(=O)c1ccc(OC)c(OC)c1,3.6,1.4,x,-0.5,3.5%,Arbovirus anti repeat=3.3
Cc1[nH]c(C)c(S(=O)(=O)N2CCCCC2)c1C(=O)N1CCCC1,-1.4,x,x,-0.4,x,
COC(=O)c1ccc(-c2cc(CC3(C(=O)OC)CCN(C(=O)OC(C)(C)C)CC3)on2)cc1,7.6,x,x,1.4,x,
CCOC(=O)c1cccnc1NC(=O)c1ccccc1,-7.0,0.7,-16.4,0.8,-10.3%,
CN(CC(=O)Nc1cccc(F)c1)C(=O)c1cc(S(=O)(=O)N2CCCCC2)ccc1N1CCOCC1,-2.0,x,x,-1.3,x,
O=C(CCn1c(=O)sc2ccccc21)Nc1nc2ccccc2s1,-0.6,-1.5,-30.1,1.5,13.6%,
O=C(NC(c1ccccc1)c1ccccc1)C1CCCO1 (configuration not stated),0.4,4.1,x,-1.8,-7.2%,
Cc1cc(C)c(OCCN2C(=O)NC(C)(C)C2=O)c(Cl)c1,1.8,16.1,-6.0,0.5,3.5%,
CCCCOc1ccc(C(=O)Nc2ccc3c(c2)OCO3)cc1,74.3,-28.9,x,0.1,51.0%,
O=C(NC1CCCCCCC1)C1CCN(S(=O)(=O)N2CCC3(CC2)OCCO3)CC1,-2.6,3.8,-21.8,-1.8,-11.4%,
CCC(=O)Oc1c(S(=O)(=O)c2ccc(C)cc2)c(C)nn1C(C)(C)C,-4.7,4.0,-19.1,12.6,4.3%,
COc1ccc(CNC(=O)C(Cc2ccccc2)n2cccc2)cc1 (configuration not stated),-8.3,x,x,7.2,2.4%,
CC(=O)CC(=O)NC1C2CC3CC(C2)CC1C3 (configuration not stated),-2.4,11.3,-7.5,1.5,6.6%,
O=C(Nc1nc2ccc(S(=O)(=O)N3CCOCC3)cc2s1)c1cccs1,-3.3,-0.6,x,-0.3,-5.0%,
COc1cc(O)c(C(CC(=O)N2CCCC2)c2ccc(N(C)C)cc2)c(OC)c1 (configuration not stated),2.0,x,x,0.5,-9.9%,
CCCc1cc(C(=O)Nc2cccc(Cl)c2C)no1,99.3,x,x,1.6,x,
CCCCNC(=O)CCn1c(=O)c2cccn2c2ccc(F)cc21,5.7,x,x,-3.6,x,
O=C(NCC(=O)N1CCN(C(c2ccccc2)c2ccccc2)CC1)c1ccccc1F,-3.9,x,x,5.9,x,
CCCCN1C(C(=O)Nc2cc(C)on2)=C(O)c2ccccc2S1(=O)=O,-1.6,x,x,2.3,x,
CCN(CC)C(=O)CSc1nnc(-c2ccc(S(=O)(=O)N3CCOCC3)cc2)n1C,3.4,x,x,1.0,x,
COc1ccc(NC(=S)N/N=C2\CC(C)(C)Oc3ccc(OC)cc32)cc1,-8.2,-6.4,-39.6,-3.0,-3.4%,
CCOC(=O)c1[nH]c(C)c(C(=O)NC2CCN(C(=O)OCC)CC2)c1C,-13.3,4.5,-35.7,-1.1,-17.2%,
Nc1ncnc2c1nc(SCCO)n2Cc1ccccc1,0.3,5.0,x,-0.8,-5.3%,
c1ccc(CNc2ncnc3sccc23)cc1,-6.6,x,x,0.3,x,
CC(C)(C)NC(=O)CN(CCN1CCOCC1)C(=O)CNS(=O)(=O)c1ccccc1,1.3,x,x,0.1,x,
COc1cc(/C=N/Nc2ccccc2)ccc1OC(=O)c1cccs1,3.8,-30.9,-24.0,x,u,
Cc1ccc(S(=O)(=O)/N=C(/Nc2cccc(O)c2)c2ccccc2)cc1,5.0,x,x,3.1,x,
COc1cc2c(cc1OC)C(C(=O)N(C)C1CCCCC1)C1CCCCN1C2=O (configuration not stated),-2.1,3.9,-31.1,-1.9,-3.3%,
O=C(Nc1ccccc1N1CCN(C(=O)c2ccccc2)CC1)c1ccc2c(c1)OCO2,-3.3,2.7,-30.7,-7.9,1.1%,
Cc1ccc(S(=O)(=O)C2(C(=O)N(C)C3CCCCC3)CC2)cc1,-4.1,-3.7,-41.8,-0.3,3.9%,
O=C(CN1CCC(NC(=O)Nc2ccccc2-c2ccccc2)CC1)NCc1ccco1,-5.0,-3.9,-17.0,0.2,2.8%,
Cc1ccc2nc(SCC(=O)N3CCN(c4ccccc4)CC3)[nH]c2c1,2.4,x,x,1.6,1.4%,
CC1(C)C(=O)OC(/C=C/c2cccc([N+](=O)[O-])c2)C(C)(C)C1=O (configuration not stated),-3.3,x,x,-1.5,-7.5%,
N#Cc1cc2ccccc2nc1N,-8.1,1.2,x,x,-1.9%,
O=C(Nc1ccccc1N1CCCCC1)c1ccc(-c2cccc(Cl)c2)o1,88.3,-38.4,-17.7,6.7,71.1%,
COc1cc(CN2CCNC(=O)C2CC(=O)NCCc2ncccc2C)cc(OC)c1 (configuration not stated),-3.1,1.4,x,0.9,6.3%,
COc1cc(-c2nnc(-c3ccccc3)o2)cc(OC)c1OC,56.6,4.9,-4.9,2.9,7.5%,
O=C(c1cccs1)N(Cc1ccco1)C1CCS(=O)(=O)C1 (configuration not stated),-1.9,10.6,-27.7,-2.6,1.2%,
Cc1cc(C)c(S(=O)(=O)NCc2cccnc2)c(C)c1,0.9,x,x,1.2,x,
Cc1onc(-c2ccccc2Cl)c1C(=O)NNC(=O)c1ccccc1F,-9.2,x,x,-0.8,x,
Cc1ccc(-c2csc3ncn(CC(=O)O)c(=O)c23)cc1C,-1.1,x,x,0.0,x,
CCc1ccc2[nH]c(=O)c(CN(CCN3CCCC3)C(=O)NC3CCCCC3)cc2c1,-1.0,-21.3,-32.9,2.6,-3.3%,
COc1ccc(C(=O)NC(=S)N(CCC(C)C)c2c(N)n(Cc3ccccc3)c(=O)[nH]c2=O)cc1,16.3,5.9,-41.1,-1.8,-6.3%,
COc1ccc(CCNC(=O)c2ccc([N+](=O)[O-])cc2Cl)cc1OC,3.8,x,x,-1.9,x,
CC/C(=N/NC(=O)c1ccccc1O)c1c(C)[nH]n(-c2ccccc2)c1=O,22.0,x,x,26.7,x,
O=S(=O)(Nc1ccc(Br)cn1)c1cccs1,2.6,2.9,x,2.1,3.1%,
O=C(Nc1ccccc1C(=O)Nc1ccncc1)c1ccc([N+](=O)[O-])cc1,5.8,x,x,0.9,x,
O=C(O)CCn1cc(C=C2C(=O)NC(=S)NC2=O)c(-c2cccc(Cl)c2)n1,3.7,6.1,x,-3.9,0.0%,
Oc1ccc(-c2nc3ccccc3s2)cc1,81.8,x,x,4.2,59.6%,
Cc1ccc(O)c(C(=O)c2cc(C(=O)NCc3ccccc3)c(=O)n(Cc3ccccc3)c2)c1,16.8,27.3,-31.2,-0.5,23.7%,
COc1nc(Nc2cccc([N+](=O)[O-])c2)nc(OC)n1,-11.0,1.1,x,3.8,-4.3%,
CC1(C)OC(=O)N2CCc3ccccc3C21C (configuration not stated),-7.8,-1.6,-32.6,0.8,-0.3%,
C=CCCc1ccc(C#N)c(SCc2c(C(=O)OCC)c3cc(OC(C)=O)c(Br)cc3n2C)n1,2.0,-5.4,0.7,1.7,-8.8%,
CCOc1ccc(NC(=O)c2ccc(S(=O)(=O)N(C)C)cc2)cc1,-0.2,1.6,-18.4,x,-0.6%,Arbovirus anti repeat=-0.8
O=C(Nc1ncn[nH]1)c1c(Cl)ccc(Cl)c1Cl,-3.7,0.6,-18.2,-2.3,3.0%,
Cc1cccc(NC(=S)Nc2cccc(C(F)(F)F)c2)n1,0.9,3.1,16.1,0.5,6.7%,
O=C(CSCc1ccc(Cl)cc1Cl)Nc1c[nH]c(=O)[nH]c1=O,-2.8,6.6,-21.4,-0.7,9.6%,
COc1ccc(-c2nn(-c3ccccc3)cc2C=O)cc1[N+](=O)[O-],14.4,x,x,-1.3,x,
COc1cc(/C=N/NC(=O)NC23CC4CC(CC(C4)C2)C3)ccc1OCC(N)=O,7.8,x,x,-1.0,x,
CCOc1ccc(Cl)cc1S(=O)(=O)N1CCC(C(=O)NC2CC2)CC1,0.8,x,x,0.9,x,
Cc1ccc(-c2cc([C@H]3[C@@H]4C=CCC[C@@]4(C)C(=O)N3Cc3ccccc3)ccc2F)cc1,6.0,x,x,13.8,14.1%,
Cn1c(SCC(=O)NC(C)(C)C)nc(O)cc1=O,-1.4,5.5,-47.3,2.6,-11.2%,
Cc1nc2sccn2c(=O)c1S(=O)(=O)Nc1ccc(N2CCOCC2)c(Cl)c1,-1.4,x,x,-1.0,x,
# (listing goes on)
SMILES,Mtb bLac sens,Arbovirus anti,YopH inh,RecA intein inh,Mtb growth,others
Oc1ccc(Oc2ncc(Cl)cc2Cl)cc1,2.3,-21.5,-8.0,3.7,-4.0%,
Cc1cccc(C)c1N(CC(=O)N1CCN(C)CC1)S(C)(=O)=O,-1.7,7.9,10.4,-0.1,-2.2%,
COc1cc2[nH]c(=O)n(Cc3ccc(C(=O)NCCCN4CCC(C)CC4)cc3)c(=O)c2cc1OC,u,-2.5,-6.4,-0.4,-11.9%,
CCNC(=O)c1ccc(NS(=O)(=O)c2ccccc2)cc1,7.0,-5.2,1.0,0.6,-2.0%,
Cn1c(=O)c2c(nc(NCc3ccco3)n2C)n(C)c1=O,-0.8,6.4,-14.6,-1.5,-8.2%,
Cn1c(SCC(=O)c2ccc(-c3ccccc3)cc2)nnc1-c1ccco1,4.6,4.7,-33.4,4.7,-5.8%,
N#CC1=C(Nc2ccccc2)SC=C(c2ccccc2)N=C1N1CCOCC1,x,2.9,-28.1,0.5,x,

# Structures from the list above that have a COOH group:
SMILES,Mtb bLac sens,Arbovirus anti,YopH inh,RecA intein inh,Mtb growth,others
Cc1ccc(-c2csc3ncn(CC(=O)O)c(=O)c23)cc1C,-1.1,x,x,0.0,x,
O=C(O)CCn1cc(C=C2C(=O)NC(=S)NC2=O)c(-c2cccc(Cl)c2)n1,3.7,6.1,x,-3.9,0.0%,
